Sfp PPTase inh – qHTS Assay for Inhibitors of Bacillus subtilis Sfp phosphopantetheinyl transferase (PPTase). 4'-phosphopantetheinyl transferase ffp (Bacillus subtilis), Q9F4F7. Biochemical Sfp PPTase activity, qHTS. Potency, µM, without a hit: max response, negative = inhibition, actives largely listed as inhibitors. actives 3.5% (n = 310,000); active = well fitted inhibition curve with a large enough effect; inconclusive = small, poorly fitted or top-dose-only effect, or another doubt; inactive = no such curve, though single readings can be large or run the other way;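 note: the enzyme is Sfp with the accession as filed and its product quenches rhodamine fluorescence; potency is the fitted concentration of half-maximal effect; 0% = enzyme reaction without inhibitor and -100% = no enzyme wells; top concentration of the series not given in the record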
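After 15 min at room temperature with compound, 15 nM Sfp received 5 uM rhodamine-CoA plus 12.5 uM BHQ-2-ybbR (50 mM Hepes pH 7.6, 10 mM MgCl2). Rate came from the fluorescence difference over 30 min, ex 525/em 598 nm.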
D2 PAM – Beta-Arrestin HTS for Positive Allosteric Modulators of the Human D2 Dopamine Receptor: Potentiators; D(2) dopamine receptor (Homo sapiens), P14416; DiscoveRx D2 beta-arrestin cells, luminescence, 90 min; 100% = 57 uM dopamine signal; potentiation, % (concentration not given with the values); actives 0.23% (n = 360,000); AID 624464, 2012; active = potentiation of 50% or more; inconclusive = 30% to 50%; inactive = 30% or less;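 note: compound concentration not given in the record; tested on top of an EC20 dose of dopamine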
Target sequence (P14416 whole entry, looked up): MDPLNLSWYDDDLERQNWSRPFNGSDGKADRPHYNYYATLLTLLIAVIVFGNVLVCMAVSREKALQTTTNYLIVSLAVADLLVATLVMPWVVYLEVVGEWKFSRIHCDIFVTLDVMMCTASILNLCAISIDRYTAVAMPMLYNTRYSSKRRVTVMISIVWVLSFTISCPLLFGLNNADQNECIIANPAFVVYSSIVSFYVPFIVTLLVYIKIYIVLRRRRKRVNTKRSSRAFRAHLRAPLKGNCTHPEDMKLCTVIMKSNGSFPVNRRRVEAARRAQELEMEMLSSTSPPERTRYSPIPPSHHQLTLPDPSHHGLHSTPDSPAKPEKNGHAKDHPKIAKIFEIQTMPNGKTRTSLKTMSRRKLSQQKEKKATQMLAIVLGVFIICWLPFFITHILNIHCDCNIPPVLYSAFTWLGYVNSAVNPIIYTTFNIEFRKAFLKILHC
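PathHunter D2 cells, attached overnight at 37 deg C, received compound in DMSO plus dopamine at EC20 (50 nM final) for 90 min at 37 deg C. Beta-arrestin recruitment was read as luminescence after 1 h with detection reagent at ambient temperature.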
D2 agonist – Beta-Arrestin HTS for Positive Allosteric Modulators of the Human D2 Dopamine Receptor: Agonists; D(2) dopamine receptor (Homo sapiens), P14416; DiscoveRx PathHunter D2 beta-arrestin, luminescence, 90 min; 100% = 57 uM dopamine signal; activation, % (test concentration not listed); actives 0.084% (n = 360,000); AID 624465, 2012; in the data active = activation above about 40%; inconclusive = about 15% to 40%; inactive = below about 15%; note: compound concentration not given in the record; the text of the record calls up to 30% inactive
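Agonist mode: compounds alone added to overnight-plated D2 PathHunter cells for 90 min at 37 C, with 57 uM final dopamine (EC100) defining full response. Beta-arrestin recruitment detected by chemiluminescent reagent, read after 1 h at ambient temperature.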
TRPV1 PAM – HTS Assay for Compounds that Act as Potentiators of the Vanilloid Receptor 1; Transient receptor potential cation channel subfamily V member 1 (Homo sapiens), Q8NER1; TRPV1-expressing cells, Fluo-8 calcium influx, capsaicin EC20 potentiation; host cell line not named in the record; control for the full effect not named in the record; potentiation, % at 8.33 µM; actives 0.02% (n = 320,000); AID 540277, 2011; active means potentiation above 80%; inconclusive means 30% to 80%; inactive means below 30%; note: 0% is about no effect
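Cells expressing TRPV1 were dye-loaded with Fluo-8 and read kinetically: 10 s baseline, 3 min after compound (agonist portion), then 2 min after EC20 capsaicin (allosteric enhancer portion). Calcium-bound dye fluorescence at 480/520 nm.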
Six1-Eya2 blk – qHTS Assay for Inhibitors of the Six1/Eya2 Interaction; actives 0.56% (n = 360,000); Homeobox protein SIX1 (Homo sapiens) + Protein phosphatase EYA2 (Homo sapiens), …; AID 651725, 2012; AlphaScreen GST-Six1/His-Eya2 binding, biochemical; stronger effect = lower value; control for the full effect not named in the record; activity change, % (test concentration not listed); in the data active = activity change below about -65%; inconclusive = about -30% to -65%; inactive = above about -30%; note: % is set by controls: 0 for no effect and ±100 for the full control effect; compound concentration not given in the record
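Homogeneous AlphaScreen proximity assay pairing GST-Six1 with His-tagged Eya2 (added as 5X mix: 250 nM and 500 nM) in 50 mM Tris pH 8.0, 300 mM NaCl, 1 mM TCEP. Glutathione donor and nickel acceptor beads; 1 h, 37 °C, dark.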
CtBP-E1A inh – qHTS Assay for Inhibitors of the CtBP/E1A Interaction. CtBP / adenovirus E1A interaction (AlphaScreen). AlphaScreen GST-E1A/His-CtBP binding, 1536-well; stronger effect = lower value; control for the full effect not named in the record. activity change, % (concentration not given with the values). actives 0.49% (n = 340,000). AID 651724, 2012; in the data active means activity change below about -65%; inconclusive means about -30% to -65%; inactive means above about -30%; note: % is set by controls: 0 for no effect and ±100 for the full control effect
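Protein mix (5X: 125 nM each GST-E1A, His-CtBP) was incubated with pinned compound 2 h at 37 deg C in dark, in 50 mM Tris pH 8.0 buffer with 300 mM NaCl. Glutathione donor and nickel acceptor beads followed; AlphaScreen signal read after 1 h.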
PINK1 expr mod – A Quantitative High throughput Screen to Identify Chemical Modulators of PINK1 Expression; actives 0.2% (n = 410,000); AID 624263, 2012; PINK1 immunofluorescence, high-content cytometry, 24 h; Potency, µM (titrated, usually from 76.6 µM), inactives show at the highest dose activation (PINK1 increase), most hits filed as activators; active = well fitted activation curve with a large enough effect; inconclusive = small, poorly fitted or top-dose-only effect; inactive = flat fitted curve, though single readings scatter; cell line not stated here;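 note: potency is the fitted concentration of half-maximal effect; % of control where 0% means no effect; nearly all actives have a fitted effect of over 65% in size; a mitochondrial uncoupler was the plate control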
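Fluorescence from anti-PINK1 antibody, together with nuclear and cell stains, was scanned on a laser-scanning cytometer. Before staining, stable-line cells were incubated 24 hours with compounds at 5 concentrations; primary antibody 12 h at 10 degrees C.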
* hit, by the source's call; ? = inconclusive; / = no result given; & = joins results of further samples; [ ] = dose if it differs, or a comment.

SMILES	Sfp PPTase inh	D2 PAM	D2 agonist	TRPV1 PAM	Six1-Eya2 blk	CtBP-E1A inh	PINK1 expr mod
O=C(CCS(=O)(=O)c1cccs1)Nc1ccc(C(=O)NCc2ccccc2)cc1	20.1%	-1.9	-1.4	-1.8	-10.2	-17.5	-0.7%
COCCCNC(=S)NNC(=O)c1cc(-c2cccnc2)nc2ccccc12	30.1%[activator]	-48.2	-13.9	-9.0	-3.3	-6.6	0.8%
COc1ccc(C(=O)NC(=S)N(C)C2CCCCC2)cc1Br	2.0%	-34.4	-3.8	-6.1	-25.3	19.4	4.3%
NC(=O)Cn1nnc(-c2ccc(CN3CCCCC3)cc2)n1	13.5%	-4.8	-4.4	-9.7	-5.1	7.1	1.0%
Cc1cc(C(C)(C)C)oc1C(=O)N(CC(=O)NC1CCCC1)Cc1ccccc1	1.4%	-0.8	-1.1	-8.3	0.5	2.3	0.0%[38.3 µM]
O=C(NCCCN1CCCC1=O)c1cccc(S(=O)(=O)NCc2ccccc2)c1	/	13.7	-2.5	1.1	-5.0	-3.3	3.9%
CCOC(=O)N1CCN(C(=O)CSc2nnc(-c3c[nH]c4ccccc34)n2CCOC)CC1	-22.8%	3.0	3.0	3.7	-1.7	0.0	0.2%
CCc1cccc(C)c1NC(=O)CSc1nc(C)c(C)o1	12.7%	-32.5	-1.4	-0.1	-13.6	0.0	-0.3%
COC(=O)CCCCNC(=O)Nc1ccccc1	17.6%	-2.5	1.8	11.4	-1.3	-2.4	0.7%
CC(c1ccccc1)C1CC(=O)N(c2cc(Cl)ccn2)C1=O (centres undefined)	-3.3%	-1.6	-1.7	-17.3	1.6	1.4	0.2%
CN1CCN(NC(=S)NC2CCCCC2)CC1	11.7%	3.5	-0.4	-5.7	11.6	19.5	-0.9%
CCOC(=O)C(C)Sc1nc2c(c(=O)[nH]c(=O)n2C)n1C/C=C(/C)Cl (centres undefined)	22.4µM*	-15.2	-8.2	6.0	2.6	6.8	-0.7%
O=C(NNC(=O)c1cc(-c2ccc(Cl)c(Cl)c2)nc2ccccc12)Nc1ccccc1	-16.4%	-12.0	-2.9	16.2	-5.6	-0.5	-2.2%
COc1ccc(NC(=O)Cc2c(SC)c3ccccc3n2Cc2ccccc2)cc1	-17.0%	-12.8	1.5	16.0	-0.7	-8.8	-0.9%
S=C(c1ccc(-c2ccc(Br)cc2)o1)N1CCOCC1	35.5µM*	3.6	2.0	-15.7	?	?	0.2%
Clc1ccc(CSc2ccc(-c3ccccn3)nn2)cc1	28.2%	5.8	0.4	15.6	?	-19.7	0.8%
COc1ccccc1NC(=O)c1ccc(NS(=O)(=O)c2cccc3cccnc23)cc1	-4.2%	-5.0	-7.4	-15.2	-0.8	-24.7	6.4%
CC1=C(C(=O)OCCOc2ccccc2)C(c2ccc(C)o2)C2=C(CC(C)(C)CC2=O)N1 (centres undefined)	-12.5%	-7.6	-2.6	-4.8	-3.7	-14.5	0.6%
COc1cccc(-c2nc(C(=O)NCCCN3CCOCC3)cc3c2[nH]c2ccccc23)c1	-6.3%	-82.7	1.9	-5.8	-14.0	-13.4	-1.1%
CCN(CC)CCNC(Cc1ccccc1)c1cccc(OC)c1 (centres undefined)	/	-26.1	-3.8	/	7.1	12.0	-4.6%
O=C(O)c1ccnc(SCC(=O)c2ccccc2)c1	3.55µM*	1.1	1.2	1.6	0.7	6.1	-0.3%
COC(=O)C(C)Sc1nc2c(cnn2-c2ccc(F)cc2)c(=O)[nH]1 (centres undefined)	5.4%	-1.1	4.6	19.6	11.1	11.5	-2.6%&6.1%
COc1ccc(CC(=O)NC2CCCCCC2)c(OC)c1	8.8%	0.1	3.0	-5.5	4.6	4.3	1.4%
CC1CCN(CC(=O)Nc2ccc(S(=O)(=O)NC3CC3)cc2)CC1	11.7%	-13.4	-2.4	5.6	6.1	/	1.1%
CN(C)S(=O)(=O)c1cccc(NC(=O)COC(=O)C2(c3ccccc3F)CCCC2)c1	15.4%	-5.3	4.8	13.6	-1.6	3.9	8.6%
O=C(/C=C/c1ccccc1[N+](=O)[O-])NCc1ccncc1	22.4%	-4.4	-3.4	-6.4	-4.4	/	0.9%
COc1ccc(OC)c(S(=O)(=O)N2CCNCC2)c1	14.3%	-5.7	-2.3	3.7	-0.8	6.9	2.0%
CC1CCCCC1NC(=O)c1ccc(N2CCCC2=O)cc1 (centres undefined)	20.6%	-4.7	-4.3	11.2	-0.2	0.2	-1.8%[38.3 µM]
COc1ccc(C(=O)c2coc3ccc(OC(C)=O)cc23)cc1	11.6%	-4.3	-0.9	1.0	6.7	2.6	-1.3%
Cc1ccc(S(=O)(=O)N2CCC(=O)N(C(CO)Cc3ccccc3)CC2)cc1 (centres undefined)	12.5%	-2.8	-1.1	-3.8	7.8	0.0	-0.2%

Reprinted from the part before: five entries, followed by the next part.
SMILES	Sfp PPTase inh	D2 PAM	D2 agonist	TRPV1 PAM	Six1-Eya2 blk	CtBP-E1A inh	PINK1 expr mod
O=C(/C=C/c1ccccc1[N+](=O)[O-])NCc1ccncc1	22.4%	-4.4	-3.4	-6.4	-4.4	/	0.9%
COc1ccc(OC)c(S(=O)(=O)N2CCNCC2)c1	14.3%	-5.7	-2.3	3.7	-0.8	6.9	2.0%
CC1CCCCC1NC(=O)c1ccc(N2CCCC2=O)cc1 (centres undefined)	20.6%	-4.7	-4.3	11.2	-0.2	0.2	-1.8%[38.3 µM]
COc1ccc(C(=O)c2coc3ccc(OC(C)=O)cc23)cc1	11.6%	-4.3	-0.9	1.0	6.7	2.6	-1.3%
Cc1ccc(S(=O)(=O)N2CCC(=O)N(C(CO)Cc3ccccc3)CC2)cc1 (centres undefined)	12.5%	-2.8	-1.1	-3.8	7.8	0.0	-0.2%
CCOc1ccc(CCNC(=O)Cn2cccc2C(=O)c2ccccc2)cc1OCC	-14.6%	-0.8	-1.3	-12.5	1.7	4.9	1.0%
O=C(NCCc1nc2ccccc2[nH]1)Nc1ccccc1	12.4%	-9.4	-2.2	4.2	1.5	7.1	0.8%[38.3 µM]
CCOc1ccc(NC(=O)COc2ccc(C(=O)NCc3cccc(OC)c3)cc2OC)cc1	/	20.3	1.9	-1.2	3.3	6.4	16.7%
CCOC(=O)CSc1nc2ccccc2c(=O)n1CC	5.5%	11.5	-0.4	1.9	11.0	-3.3	-0.2%
CN(C)S(=O)(=O)N1CCC(CCCC2CCN(S(=O)(=O)N(C)C)CC2)CC1	-27.1%	-9.6	-0.2	14.9	2.4	3.4	-1.9%[38.3 µM]
CCN1C(c2ccccc2)=C(c2ccccc2)S/C1=C\C=C1/SC(=S)N(C)C1=O	/	0.8	?	/	?	-26.9	9.8%[38.3 µM]
Cc1ccc(C2=CC(=O)C[C@H](c3ccc4c(c3)OCO4)C2)cc1	/	-6.3	-2.0	-2.4	-15.1	-8.0	1.9%
CN(C)S(=O)(=O)N1CCC(Oc2cccc(C(=O)N3CCCCCCC3)c2)CC1	5.5%	3.2	-2.5	-5.7	2.8	-2.7	-1.1%
COc1ccc(C(=O)N2CCOCC2)cc1S(=O)(=O)N1CCCc2ccccc21	18.3%	-33.8	-9.6	14.8	18.5	/	2.0%
CCn1c(SCC(=O)NCc2ccccc2)nc2c(c1=O)SC(C)C2 (centres undefined)	18.2%	0.9	-0.2	5.6	-1.1	5.8	-1.0%
CCN(CC)C(=O)c1sc(NC(=O)c2ccc3c(c2)OCO3)c(C#N)c1C	16.7%	-5.9	3.9	-2.8	-0.6	-13.3	3.4%
O=C(C1CN(C(=O)c2cc3cc(Cl)ccc3o2)c2ccccc2O1)N1CCCCC1 (centres undefined)	/	-14.0	-1.7	-7.5	-6.1	8.3	0.6%
CC(Oc1ccc2c(-c3ccccc3)cc(=O)oc2c1)C(=O)N1CCC[C@@H]1C(N)=O (some centres undefined)	-2.6%	-26.9	-5.2	-6.2	-19.4	-4.8	1.4%
O=C(C1CCCCN1S(=O)(=O)c1ccccc1)N1CCN(C(c2ccccc2)c2ccccc2)CC1 (centres undefined)	3.0%	-7.4	-0.1	-6.7	-11.0	-3.6	?
Cn1c(SCC(=O)Nc2ccc3cn[nH]c3c2)nnc1-c1cnccn1	10.9%	28.0	-2.3	-3.0	-4.0	2.6	-2.0%
O=C(Nc1cccc(S(=O)(=O)Nc2ccccc2Cl)c1)c1ccc(N2CCCC2)c([N+](=O)[O-])c1	19.2%	-8.5	-0.7	-8.4	-2.4	?	-0.4%
COc1cc(C(=O)N[C@@H](C)C(=O)NCc2ccco2)cc(OC)c1OC	8.3%	1.9	-6.4	3.9	-3.2	-1.1	2.5%
COc1cccc(CN2CCN(Cc3ccon3)CC2CCO)c1 (centres undefined)	7.4%	-5.7	-3.6	-1.9	14.7	-2.3	1.2%
COC(=O)c1cccc(Oc2cccc(C(F)(F)F)c2)n1	-1.0%	-10.2	1.6	-4.3	1.3	/	1.0%
C/C(=N\NC(=O)COc1ccc(C(C)(C)C)cc1)c1ccc(N2CCOCC2)cc1	1.5%	-9.1	-7.6	-5.9	3.4	/	3.9%
COc1ccccc1N1CCN(C(=O)C2CCCN(c3ncnc4c3nc3n4CCCCC3)C2)CC1 (centres undefined)	7.6%	16.4	0.2	-16.6	-27.5	?	1.0%

Source: PubChem BioAssay (National Center for Advancing Translational Sciences (NCATS))
